# Bioassay records from PubChem BioAssay.
# HCMV NEC inh: cytomegalovirus nuclear egress complex inhibition. hit rate 0.15% among 190,000. inhibition, % (test concentration not listed). HTRF UL50-UL53 interaction, normalized percent inhibition. AID 1918969;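 active means both replicates at 50% or more, plus weaker picks with an unusually low signal ratio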;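 further: stock transfer was 100 nL into about 20 µL; 0% = negative control wells and 100% = wells with untagged competitor protein; inactives centre near -12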
# GIV Gai3 FP: blocks GIV peptide binding to rat Galpha-i3; P08753; Galpha-i3/FITC-GIV peptide fluorescence polarization, 90 min; stronger effect = lower value; scaled: aluminum fluoride 0%, vehicle 100%; percent of control (FP), % (concentration not given with the values); hit rate 0.42% among 210,000; AID 1224905;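 active means replicate mean at 85% of control or lower, very high polarization wells dropped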;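 further: wells of about 15 µL received 100 nL stock; the first replicate is given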
# Target sequence (P08753 whole entry, looked up): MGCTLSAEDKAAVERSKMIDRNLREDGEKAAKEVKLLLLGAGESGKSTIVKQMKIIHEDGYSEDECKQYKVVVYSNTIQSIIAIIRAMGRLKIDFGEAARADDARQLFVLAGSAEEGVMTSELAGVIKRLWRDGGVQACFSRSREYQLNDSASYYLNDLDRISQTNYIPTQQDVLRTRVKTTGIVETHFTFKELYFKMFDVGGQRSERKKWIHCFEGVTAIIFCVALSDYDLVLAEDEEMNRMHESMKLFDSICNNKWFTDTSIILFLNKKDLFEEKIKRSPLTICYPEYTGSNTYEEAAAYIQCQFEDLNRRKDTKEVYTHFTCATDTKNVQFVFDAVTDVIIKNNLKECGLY
# Sa growth 42C: inhibitors of Staphylococcus aureus growth at 42 °C; S. aureus RN4220 growth, OD600, 20 h; stronger effect = lower value; hit rate 0.53% among 170,000; AID 720641; relative growth, % (no concentration beside the values);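 active means growth at 42 °C up to 50% and 20 or more points under that at 30 °C, or under 10% at both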;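 further: 300 nL library stock went into each well; scaled to the means of positive and negative controls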
# Sa growth 42C second temp: recorded beside Sa growth 42C, whose call it bears; relative growth, %; measured here: growth at 30 °C;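 optical density after 20 h as mean of two plates; 100% = untreated growth and lower means inhibition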
# Starred values were filed as active, the others as inactive; · = not tested or not shown. Outcome played no part in choosing rows, and some 0.8% of all compounds hit somewhere here.
SMILES,HCMV NEC inh,GIV Gai3 FP,Sa growth 42C,Sa growth 42C second temp
CSC1=NCCN1C(=O)c1cccs1,-39,99,83,88
COc1ccc(CNC(=O)CN2C(=O)CCn3nc(-c4ccccc4)cc32)c(OC)c1,·,104,91,93
CCc1ccc(C(=O)Nc2ccc3nn(-c4ccc(C)c(Cl)c4)nc3c2)cc1,-3,100,88,94
Cc1ccc(-c2nn3c(C)nnc3c3ccccc23)cc1S(=O)(=O)NCCO,-18,103,103,86
CCOc1ccc(OCC)c(Nc2nc3ccccc3c3nncn23)c1,1,104,·,·
O=C(NC1=NCCCCC1)c1cccc2ccccc12,-64,·,113,88
CC(C#N)Sc1nnc(-c2cccnc2)n1C1CCCCC1C (stereo unspecified),-17,·,87,95
Cn1c(C(=O)NCCN2CCCCCC2)cc2sccc21,·,113,103,86
CC1(C)CC(=O)c2cc(C(=O)Nc3ccccc3Cl)c(=O)[nH]c2C1,-19,101,·,·
N#Cc1ccc(NC(=O)CN2C(=O)CCC2=O)cc1,0,·,93,94
Cc1ncc2c(c1O)COC(C(C)C)OC2 (stereo unspecified),-15,103,108,66
O=C(CN(C(=O)C1CSC(=O)C1)c1ccccc1F)NCc1ccc2c(c1)OCO2 (stereo unspecified),-10,106,102,84
O=c1oc2ccccc2c2oc3cc(O)c(O)cc3c12,-28,104,64,8
Cc1cc(NC(=O)NCc2ccccc2)no1,-30,103,93,94
COc1ccc(CNC(=O)C2CCN(Cc3nc(-c4ccc(OC)c(OC)c4)oc3C)CC2)cc1,-18,109,116,93
Cc1cc(N2CCOCC2)n2nc(Cc3ccccc3)nc2n1,6,98,·,·
CCOC(=O)c1c(NC(=O)/C=C/C(=O)O)sc2c1CCN(C(C)=O)C2,-24,97,90,83
COc1cc(C(=O)N2CCNCC2)cc(OC)c1OC,-3,·,89,90
COc1ccc(C=C2C(=O)C3(C)CCC2C3(C)C)cc1 (stereo unspecified),-22,·,101,83
CC(C)c1ccc2[nH]c3c(c2c1)CCCC3=O,·,102,61,82
COc1cccc(NC(=O)c2ccc3c(c2)C(=O)N(C2CCCCC2)C3=O)c1,-18,101,105,82
COc1cc(=O)[nH]c(SC(C)C(=O)Nc2ccccc2)n1 (stereo unspecified),-6,102,99,90
c1ccc(Cc2nnc3sc(Nc4ccccc4)nn23)cc1,·,100,131,79
O=C(CN1CCN(S(=O)(=O)c2ccc3c(c2)OCCCO3)CC1)N1CCC(c2ccccc2)=N1,-8,·,104,88
NC(=O)C1CCCN(Cc2ccc(Cl)cc2)C1 (stereo unspecified),-10,101,101,98
O=c1cc(O)c2c(n1-c1ccccc1)CCCC2,7,103,114,107
N#CCc1nnc2n1CCCCC2,·,100,102,83
Cc1nc2ccccc2c2c1C(=O)N(C(c1ccccc1)c1ccccc1)C2=O,-30,105,·,·
CCOC(=O)c1c(-c2ccccc2)oc2ccc(OCc3ccccc3Br)cc12,-54,109,105,96
Nc1nc(Cc2ccc(F)cc2F)no1,17,98,108,98
CC(Oc1ccc(Cl)cc1Cl)C(=O)NCCCn1ccnc1 (stereo unspecified),-11,·,108,84
CCc1nc(N2CCc3ccccc32)c2sc(=S)n(-c3ccccc3)c2n1,-12,·,98,84
COc1ccc(-c2cc(C(=O)N3CCCCC3C)no2)cc1 (stereo unspecified),-3,96,101,76
CCCC1C2CN(Cc3ccccc3)CC=C2C(C#N)=C(N)C1(C#N)C#N (stereo unspecified),-43,20*,102,72
CCOC(=O)C1CCN(C(=O)CCCn2nc(-c3ccccc3)c3ccccc32)CC1,·,107,144,79
Cc1ccc(CN(Cc2cccnc2)C(=O)Nc2ccccc2)cc1,-1,100,92,86
N#Cc1nncn1CN1CCN(S(=O)(=O)c2cc(C(F)(F)F)cc(C(F)(F)F)c2)CC1,-35,·,84,92
CCc1c(C)c2ccc3c(c2oc1=O)CN(Cc1ccccc1)CO3,·,103,68,81
Cc1ccc(OCC(=O)Oc2ccc(C)cc2)cc1,-23,·,89,91
COc1ccc(C2=C(C)C(N3CCC(C(=O)Nc4cc(C)ccc4C)CC3)=NS2(=O)=O)cc1,·,106,89,87
O=C1Nc2ccccc2C1=Nc1ccc(-c2nnc3n2CCCCC3)cc1,4,·,104,92
COc1ccc(N2C(=O)C3C(C2=O)C2(C)C=CC3(C)O2)c([N+](=O)[O-])c1 (stereo unspecified),-20,106,·,·
CCCOc1ccc(C2c3c(oc4ccccc4c3=O)C(=O)N2c2nc(C)c(C(=O)OCC)s2)cc1 (stereo unspecified),-41,100,88,89
COc1ccc(-c2nn(-c3ccc(C)c(Cl)c3)c3c2cnc2cc(OC)c(OC)cc23)cc1,·,102,112,98
CCN(Cc1ccccc1)c1ncc(NS(=O)(=O)c2ccc(OC)cc2)cc1C(=O)O,-44,113,·,·
Cc1cc(C)c(NC(=O)Cn2c(=O)n(Cc3ccc(C(=O)NCc4ccc5c(c4)OCO5)cc3)c(=O)c3ccccc32)c(C)c1,-30,105,106,87
Cc1nn(CCCC#N)c(=O)c2cc3sccc3n12,-38,100,85,90
O=C(Cn1nc2c3ccccc3ncn2c1=O)Nc1ccccc1Cl,-18,102,·,·
O=C(NCCc1cnc[nH]1)c1cccs1,-30,102,101,102
Cc1ccc2nc(COC(=O)c3ccc(OCc4c(C)noc4C)cc3)cc(=O)n2c1,-18,·,78,96
O=c1c(/C=N/NC2CCS(=O)(=O)C2)c(N2CCCCC2)nc2ccccn12 (stereo unspecified),-43,·,94,95
Cc1cc(C)c2oc(C(=O)Nc3sc4c(c3C(=O)NCc3ccco3)CCCC4)cc(=O)c2c1,-16,97,104,84

# Shown with values under each structure: part of the list above
# The line under a structure holds: HCMV NEC inh	GIV Gai3 FP	Sa growth 42C	Sa growth 42C second temp
COc1ccc(N2C(=O)C3C(C2=O)C2(C)C=CC3(C)O2)c([N+](=O)[O-])c1 (stereo unspecified)
  -20	106	·	·
CCCOc1ccc(C2c3c(oc4ccccc4c3=O)C(=O)N2c2nc(C)c(C(=O)OCC)s2)cc1 (stereo unspecified)
  -41	100	88	89
COc1ccc(-c2nn(-c3ccc(C)c(Cl)c3)c3c2cnc2cc(OC)c(OC)cc23)cc1
  ·	102	112	98
CCN(Cc1ccccc1)c1ncc(NS(=O)(=O)c2ccc(OC)cc2)cc1C(=O)O
  -44	113	·	·
Cc1cc(C)c(NC(=O)Cn2c(=O)n(Cc3ccc(C(=O)NCc4ccc5c(c4)OCO5)cc3)c(=O)c3ccccc32)c(C)c1
  -30	105	106	87
Cc1nn(CCCC#N)c(=O)c2cc3sccc3n12
  -38	100	85	90

# An excerpt of these results, as tab-separated lines:
canonical_smiles	HCMV NEC inh	GIV Gai3 FP	Sa growth 42C	Sa growth 42C second temp
Cc1ccc(CN(Cc2cccnc2)C(=O)Nc2ccccc2)cc1	-1	100	92	86
N#Cc1nncn1CN1CCN(S(=O)(=O)c2cc(C(F)(F)F)cc(C(F)(F)F)c2)CC1	-35	·	84	92
CCc1c(C)c2ccc3c(c2oc1=O)CN(Cc1ccccc1)CO3	·	103	68	81

# Records listed so far marked active in GIV Gai3 FP.
SMILES,GIV Gai3 FP,Sa growth 42C,Sa growth 42C second temp
CCCC1C2CN(Cc3ccccc3)CC=C2C(C#N)=C(N)C1(C#N)C#N (stereo unspecified),20*,102,72

# An excerpt of these results, tab-delimited:
SMILES	HCMV NEC inh	GIV Gai3 FP	Sa growth 42C	Sa growth 42C second temp
NC(=O)C1CCCN(Cc2ccc(Cl)cc2)C1 (stereo unspecified)	-10	101	101	98
O=c1cc(O)c2c(n1-c1ccccc1)CCCC2	7	103	114	107
N#CCc1nnc2n1CCCCC2	·	100	102	83
